Assay outcomes as filed in PubChem BioAssay.
Arbovirus anti = antivirals against arbovirus infection, primary screen, cell-based, full library, 10K replicate subset; arbovirus infection cell-based antiviral screen; AID 1251, 2008; 0.37% of 200,000 active; inhibition, % at 10 µM;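 active = inhibition from about 30%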;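 note: bluetongue infection of BSR cells; cell survival read as ATP light after 72 h; 0% = infected wells without compound and 100% = uninfected wells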
Mtb growth = M. tuberculosis H37Rv growth inhibitors, H37Rv strain (AID 1626). 0.95% of 220,000 active. M. tuberculosis H37Rv growth inhibition; higher % means a stronger effect. inhibition, % at 10 µM; hits with a dose series show IC50 in µM;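 active = confirmed in a dose series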;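 note: bacteria incubated seven days before Alamar blue readout; 0% = bacteria only wells and 100% = bacteria with antibiotic wells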
Mtb bLac sens = beta-lactam sensitization of Mtb H37Rv, H37Rv | 0.27% of 330,000 active | inhibition, % at 25 µM | M. tuberculosis H37Rv growth with meropenem, percent inhibition; hits of this screen are not shown here;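 active = about 74% or more and at least 40 points above the plate without the antibiotic, then above 30% in a dose series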;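 note: growth measured after seven days incubation then overnight dye step; 0% = bacteria only wells and 100% = bacteria with antibiotic; twin plates without the antibiotic show which effects depend on it; some results filed as inactive read as strong as hits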
YopH PTP inh = YopH tyrosine phosphatase inhibitors, primary screen, biochemical, fluorescence Ex485/Em525; inhibition, %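 (about 10 µM by stock and volumes)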; 0.16% of 140,000 active;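 active = inhibition of 50% or more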;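 note: controls were vehicle for no effect and minimum signal wells for full effect; inactives centre near -20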
RecA intein inh = Mtb RecA intein splicing inhibitors, primary screen, biochemical, fluorescence, HTS | Protein RecA (Mycobacterium tuberculosis (strain ATCC 25618 / H37Rv)), P9WHJ3 | cell-free RecA intein splicing | inhibition, %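 (about 9 µM by stock and volumes)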 | 0.75% of 290,000 active | AID 2221, 2009; in the data active = inhibition above about 30%;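 note: 0% = vehicle wells and 100% = reference inhibitor control wells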
Target sequence (P9WHJ3 whole entry, looked up): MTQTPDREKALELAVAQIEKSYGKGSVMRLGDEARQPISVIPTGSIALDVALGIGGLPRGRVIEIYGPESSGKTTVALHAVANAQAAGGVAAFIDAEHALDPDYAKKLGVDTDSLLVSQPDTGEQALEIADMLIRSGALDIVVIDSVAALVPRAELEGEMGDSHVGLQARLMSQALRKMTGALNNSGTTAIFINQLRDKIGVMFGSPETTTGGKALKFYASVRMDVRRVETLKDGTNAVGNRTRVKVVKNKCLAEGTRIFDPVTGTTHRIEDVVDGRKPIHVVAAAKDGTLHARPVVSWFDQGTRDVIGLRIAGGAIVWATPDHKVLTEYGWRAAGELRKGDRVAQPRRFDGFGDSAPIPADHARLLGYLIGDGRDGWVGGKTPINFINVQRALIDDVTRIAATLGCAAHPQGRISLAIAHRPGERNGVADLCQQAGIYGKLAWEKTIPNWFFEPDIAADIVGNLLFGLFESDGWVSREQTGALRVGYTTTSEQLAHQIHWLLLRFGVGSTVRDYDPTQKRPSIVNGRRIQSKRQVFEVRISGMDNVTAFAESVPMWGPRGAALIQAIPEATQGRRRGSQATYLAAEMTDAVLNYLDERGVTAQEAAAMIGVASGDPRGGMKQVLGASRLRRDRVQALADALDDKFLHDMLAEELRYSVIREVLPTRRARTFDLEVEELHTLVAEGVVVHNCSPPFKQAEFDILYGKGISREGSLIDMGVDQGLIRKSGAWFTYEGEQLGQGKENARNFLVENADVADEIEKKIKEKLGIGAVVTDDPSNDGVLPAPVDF
Arbovirus anti repeat = second read-out of Arbovirus anti, no call of its own (marks repeat the call); inhibition, %; measured here: 10K subset replicate screen; many hits read low in the repeat;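 first of two repeat runs on a subset; 0% = infected and 100% = uninfected wells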
The depositor's hits bear a star.

CCC1=C(OC(=O)N(CC)CC)N2C(=O)OC(=NCC3CC3)[C@]2(C)[C@H]2C1=CC[C@H]1C(=O)N(CC(=O)OC)C(=O)[C@H]12 was read as Mtb growth -13.6% and Mtb bLac sens -4.9.
For O=C(CN1C(=O)C2CC=CCC2C1=O)Nc1nc2ccccc2s1 (stereo not given) the results were Arbovirus anti 1.9, Mtb growth 1.4%, Mtb bLac sens 18.6 and RecA intein inh -3.6.
Screening CCc1cccc(NC(=O)C2CCCN2S(=O)(=O)c2ccc3c(c2)n(C)c(=O)c(=O)n3C)c1 (stereo not given) returned Mtb growth 6.9%, Mtb bLac sens -6.2 and RecA intein inh -3.6.
c1csc(-c2noc(CN3CCOCC3)n2)c1 was read as Mtb growth -7.7% and Mtb bLac sens 7.3.
O=C(N1CCCC1)C12CC3CC(CC(C3)C1)C2 was read as Arbovirus anti -11.8, Mtb growth -6.8%, Mtb bLac sens 12.0, YopH PTP inh -11.4 and RecA intein inh 0.0.
For Cc1ccc(N(CC(=O)NCc2ccco2)S(=O)(=O)c2ccccc2)cc1 the results were Arbovirus anti 5.2, Mtb growth -6.7%, Mtb bLac sens 3.0, YopH PTP inh 5.5 and Arbovirus anti repeat -2.7.
Screening CCCCNc1nc(-c2ccccc2)nc(-n2ccnc2)n1 returned Arbovirus anti -3.9, Mtb growth 1.2%, Mtb bLac sens 12.4, YopH PTP inh -36.0 and RecA intein inh -1.3.
`COc1cccc(CNn2cnnc2)c1OCc1ccccc1F` gave Arbovirus anti -6.0, Mtb growth 1.8%, Mtb bLac sens 1.2, YopH PTP inh -30.8 and RecA intein inh -0.6.
For Cc1ccc(NS(=O)(=O)c2ccc(C(=O)NCC(c3ccco3)N3CCCCC3)cc2)cc1 (stereo not given) the results were Mtb bLac sens 2.9 and RecA intein inh -1.2.
`COCc1cc(C)nc2oc(C(=O)c3ccccc3)c(N)c12` gave Arbovirus anti 7.7, Mtb growth -0.3%, Mtb bLac sens 0.2 and RecA intein inh -6.5.
COC(=O)c1c(C)[nH]c(C(=O)C(C)[N+]23CCN(CC2)CC3)c1C (stereo not given) was read as Arbovirus anti 11.3, Mtb growth 5.4%, Mtb bLac sens 2.0 and RecA intein inh -1.0.
For COc1ccc(CCNCc2cccn2C)cc1OC the results were Mtb bLac sens -1.8 and RecA intein inh -2.8.
`O=C(CNC(=O)N1CC(=O)Nc2ccccc21)Nc1cccc(F)c1` gave Mtb bLac sens -5.3 and RecA intein inh -0.7.
N#Cc1ccsc1NC(=O)CCc1ccccc1 was read as Arbovirus anti -12.4, Mtb growth 7.9%, Mtb bLac sens -4.2 and RecA intein inh 2.8.
Screening NC(=O)C1CCN(C(=O)c2cc(S(=O)(=O)N3CCOCC3)ccc2Cl)CC1 returned Arbovirus anti -0.3, Mtb growth -6.0%, Mtb bLac sens -0.7 and RecA intein inh 2.7.
For CCn1ncc(CNC(=O)CCCSc2nc(-c3ccco3)cc(C(F)(F)F)n2)c1C the results were Arbovirus anti -3.3, Mtb growth 10.0%, Mtb bLac sens 50.4, YopH PTP inh -8.1 and RecA intein inh 1.4.
`Cc1ccc(S(=O)(=O)NC2CCOC(C)(C)C2)cc1` (stereo not given) gave Arbovirus anti 7.6, Mtb growth -8.4%, Mtb bLac sens -6.1, YopH PTP inh 0.6 and RecA intein inh -0.9.
For Cc1ccc(OCc2n[nH]c(=S)n2-c2ccc(Cl)cc2)cc1 the results were Mtb bLac sens 2.1 and RecA intein inh 0.1.
`O=C(O)COc1ccc(/C=C/C(=O)c2ccc3ccccc3c2)cc1` gave Mtb bLac sens -10.3 and RecA intein inh 0.6.
Screening CC1=NN(c2ccc(C(=O)O)cc2)C(=O)/C1=C\c1ccc(OC(=O)c2cccs2)cc1 returned Arbovirus anti -2.1, Mtb growth 78.8%, Mtb bLac sens 97.6 and RecA intein inh 92.8*.

Compounds shown so far that have a Cl atom (two):
Screening NC(=O)C1CCN(C(=O)c2cc(S(=O)(=O)N3CCOCC3)ccc2Cl)CC1 returned Arbovirus anti -0.3, Mtb growth -6.0%, Mtb bLac sens -0.7 and RecA intein inh 2.7.
For Cc1ccc(OCc2n[nH]c(=S)n2-c2ccc(Cl)cc2)cc1 the results were Mtb bLac sens 2.1 and RecA intein inh 0.1.

(further entries)
CCCN1CCN(CCCNC(=O)c2ccccc2NC(=O)C2=C(C)OCCS2)CC1 was read as Mtb bLac sens 1.5 and RecA intein inh 0.3.
`CCOC(=O)N1CCN(C(=O)c2cnc(Nc3ccccc3OC)c3ccccc23)CC1` gave Arbovirus anti 13.7, Mtb growth -6.2%, Mtb bLac sens -1.4 and YopH PTP inh -4.7.
Screening CCCCN(CCCC)C(=O)c1sc2nc(N3CCOCC3)c3c(c2c1N)CCCC3 returned Mtb growth -1.0%, Mtb bLac sens -3.2 and RecA intein inh 4.3.
`COc1cc(/C=C/C(=O)OCC(=O)NCc2cccs2)ccc1OCC#N` gave Arbovirus anti -4.3, Mtb growth 10.3%, Mtb bLac sens -5.6, YopH PTP inh -13.2 and RecA intein inh 0.8.
O=C(Cc1ccccc1)NN1C(=O)C2C3C=CC([C@@H]2C1=O)C31CC1 (stereo not given in full) was read as Arbovirus anti 6.4, Mtb growth 2.5%, Mtb bLac sens -1.8, YopH PTP inh -29.0 and RecA intein inh -2.7.
Screening Cc1cc(C(F)(F)F)nc(-n2cc(-c3ccccc3)nn2)n1 returned Arbovirus anti 3.3, Mtb growth 0.2%, Mtb bLac sens 0.6 and RecA intein inh 1.5.
For Cc1ccc(CNC(=O)c2ccc3c(=O)[nH]c4c(C(=O)NCC5CCCO5)sc(=S)n4c3c2)cc1 (stereo not given) the results were Arbovirus anti -1.7, Mtb growth 11.5%, Mtb bLac sens 41.3 and RecA intein inh -10.5.
For CS(=O)(=O)N(CC(=O)N1CCCCCC1)c1ccc(Br)cc1 the results were Arbovirus anti 0.0, Mtb growth -4.6%, Mtb bLac sens 3.7, YopH PTP inh -2.2 and RecA intein inh 6.0.
Screening CC(/C=N/NC(=O)CSc1n[nH]c(=O)[nH]c1=O)=C\c1ccccc1 returned Mtb growth 0.0%, Mtb bLac sens -11.5 and RecA intein inh 2.0.
Screening Cc1nn(C)c(C)c1CNC(=O)c1cnn2c1NC(c1ccccc1)CC2C(F)(F)F (stereo not given) returned Arbovirus anti 1.6, Mtb growth 0.6%, Mtb bLac sens 1.4, YopH PTP inh -49.7 and RecA intein inh 1.6.
For COc1ccc(N(C(=O)c2ccco2)C(C(=O)NC2CCCCC2)c2cccs2)cc1OC (stereo not given) the results were Arbovirus anti -2.8, Mtb growth -3.0%, Mtb bLac sens -6.9, YopH PTP inh -14.1 and RecA intein inh 2.7.
For CCOc1ccccc1NC(C)C(=O)Nc1cc(C(F)(F)F)ccc1N1CCOCC1 (stereo not given) the results were Arbovirus anti -0.4, Mtb growth 7.1%, Mtb bLac sens 4.7, YopH PTP inh -20.4 and RecA intein inh 20.4.
`Cc1nnc(N/N=C/c2ccccn2)[nH]c1=O` gave Mtb growth -0.2%, Mtb bLac sens -6.9 and RecA intein inh -2.1.
COc1ccc(COc2ccc(S(=O)(=O)N3CCCC3)cc2C(N)=O)cc1F was read as Mtb bLac sens 8.9 and RecA intein inh 1.3.
CCOC(=O)c1c(C)n(C)c2ccc(OC)c(NC(=O)CN3CCSCC3)c12 was read as Arbovirus anti -2.5, Mtb growth 3.4%, Mtb bLac sens -4.8, YopH PTP inh -41.3 and RecA intein inh 1.0.
Screening O=C(OCC(=O)N1CCc2ccccc21)c1ccc[n+]([O-])c1 returned Arbovirus anti 8.0, Mtb growth 1.0%, Mtb bLac sens -8.7, YopH PTP inh -5.3 and RecA intein inh -4.0.
Cc1ccc2oc(-c3cccc(NC(=O)Cn4cnc5c(=O)n(C)c(=O)n(C)c54)c3)nc2c1 was read as Arbovirus anti -14.1, Mtb growth 5.8%, Mtb bLac sens 5.6 and RecA intein inh -2.9.
Screening COc1cccc(N2CCN(C(C)C(=O)NC34CC5CC(CC(C5)C3)C4)CC2)c1 (stereo not given) returned Mtb bLac sens 0.7 and RecA intein inh 2.6.
For CCOC(=O)c1c(C)[nH]c(C)c1S(=O)(=O)NCC1CCN(Cc2cccc(F)c2)CC1 the results were Mtb bLac sens 16.8 and RecA intein inh -2.7.
For O=C(Cc1ccccc1)NCc1cccnc1 the results were Arbovirus anti 8.1, Mtb growth 3.5%, Mtb bLac sens 3.1 and RecA intein inh -3.3.
For Cc1ccccc1NC(=O)C1c2cccc[n+]2CC(=O)N1Cc1ccc2c(c1)OCO2 (stereo not given) the results were Arbovirus anti -7.5, Mtb growth -2.3%, Mtb bLac sens -0.7 and RecA intein inh -0.1.
For C=CCNC(=O)C(=O)c1cccn1-c1ccsc1C(=O)OC the results were Arbovirus anti 7.5, Mtb growth -0.5%, Mtb bLac sens -3.0, YopH PTP inh -18.1 and RecA intein inh -0.9.
`O=C1NC(=O)N(c2ccccc2)C(=O)/C1=C/c1ccc(Sc2ccccc2)o1` gave Arbovirus anti -0.7, Mtb growth 23.1%, Mtb bLac sens 92.7, YopH PTP inh -25.0 and RecA intein inh 4.1.
For COC(=O)c1ccc(COc2ccc(C)cc2[N+](=O)[O-])o1 the results were Mtb growth 15.9%, Mtb bLac sens 1.5 and RecA intein inh 2.4.
`CCCCNC(=O)C1c2ccccc2C(=O)N(c2ccc(OC)cc2)C1c1ccc(OC)cc1` (stereo not given) gave Arbovirus anti -18.8, Mtb growth -3.6%, Mtb bLac sens -2.1, YopH PTP inh -16.8 and RecA intein inh 0.8.
`Cc1ccc(CN2C3CCCC2CC(NC(=O)Nc2cccc(F)c2)C3)cc1` (stereo not given) gave Arbovirus anti -30.1, Mtb growth 2.1%, Mtb bLac sens -7.1 and RecA intein inh -1.9.
For O=C(Cc1ccccc1)Nc1cccnc1 the results were Arbovirus anti 2.7, Mtb growth 2.3%, Mtb bLac sens -5.7 and RecA intein inh -0.3.
`Cc1ccc(NC(=O)Cn2c(=O)n(CCC(=O)NC3CCN(Cc4ccccc4)CC3)c(=O)c3ccccc32)cc1` gave Arbovirus anti -13.8, Mtb growth -4.7%, Mtb bLac sens 0.5 and RecA intein inh -1.0.
Screening COc1ccc(C(=O)C2CCCN(Cc3ccc(C#CCCO)cc3)C2)cc1F (stereo not given) returned Arbovirus anti -2.5, Mtb growth 2.9%, Mtb bLac sens -3.9 and RecA intein inh -3.3.
For C/C(=N\NC(=O)C1(C)CC1(Br)Br)c1ccc([N+](=O)[O-])cc1 (stereo not given) the results were Arbovirus anti 0.7, Mtb growth 5.8%, Mtb bLac sens 8.1 and RecA intein inh -0.6.
Screening CC(N)=Nc1ccc([N+](=O)[O-])cc1 returned Arbovirus anti -6.4, Mtb growth 1.0%, Mtb bLac sens 3.8, YopH PTP inh -22.8 and RecA intein inh 0.5.
Screening O=C(CSc1nccc(=O)[nH]1)Nc1ccc(F)c([N+](=O)[O-])c1 returned Arbovirus anti 3.5, Mtb growth -7.5%, Mtb bLac sens -2.0, YopH PTP inh 0.1 and RecA intein inh -0.7.
For CCOC(=O)CN1C(=O)N[C@@H](c2ccc(Br)cc2)C(C(C)=O)=C1C the results were Arbovirus anti 3.9, Mtb growth -3.5% and YopH PTP inh -19.8.
`Cc1cc(C)n(CNc2nc(C(F)(F)F)cs2)n1` gave Arbovirus anti 2.0, Mtb growth -10.6%, Mtb bLac sens -5.3, YopH PTP inh -34.5 and RecA intein inh 3.0.
`CCCC(=O)OCC(=O)Nc1ccc([N+](=O)[O-])cc1C#N` gave Mtb growth -11.5%, Mtb bLac sens 0.0 and RecA intein inh 7.2.
COc1ccc(NCCC#N)cc1 was read as Arbovirus anti 0.0, Mtb growth -0.8%, Mtb bLac sens -11.9, YopH PTP inh 1.6 and RecA intein inh -1.0.
For CCN(CC)CCCCCOc1ccccc1OC the results were Arbovirus anti 0.6, Mtb growth -6.6%, Mtb bLac sens -3.4, YopH PTP inh -32.4 and RecA intein inh -1.3.
For COc1ccc(C2C=C(c3ccccc3)Nc3nnnn32)cc1 (stereo not given) the results were Arbovirus anti 2.9, Mtb growth 3.0%, Mtb bLac sens 9.1, YopH PTP inh -26.9, RecA intein inh -14.2 and Arbovirus anti repeat -0.4.
Screening CC(C)(C)NC(=O)C(c1ccncc1)N(Cc1cccs1)C(=O)Cn1nnc(-c2cccs2)n1 (stereo not given) returned Arbovirus anti -8.9, Mtb growth -8.6%, Mtb bLac sens -2.6, YopH PTP inh -8.4 and RecA intein inh 5.8.
Cc1cc(Nc2c(C)n(C)n(-c3ccccc3)c2=O)c2ccccc2n1 was read as Arbovirus anti 4.7, Mtb growth -1.9%, Mtb bLac sens 3.2, YopH PTP inh -17.1 and RecA intein inh -0.2.

Not all compounds are listed, so the mix of outcomes need not match the whole.
